Screens as filed in PubChem BioAssay.
Ecoli growth: blocks Escherichia coli growth | AID 1053175 | OD600 absorbance (test concentration not listed) | 330,000 tested, 0.21% active | OD600, 23 h; stronger effect = lower value;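 active means OD600 absorbance below the run mean of sample wells minus 3.6 SD, in any replicate, cut at about 0.56 in these data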;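 further: stock transfer was 300 nL into about 60 µL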
UCH37 inh: human UCH37 deubiquitinating enzyme inhibition; purified proteasome/UCH37, Ub-AMC cleavage fluorescence; inhibition, % (no concentration beside the values); AID 588478; 330,000 tested, 0.33% active; Q9Y5K5;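 active means mean of two replicates above 20%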;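 further: 0% = compound-free wells with enzyme and 100% = wells lacking proteasome; stock transfer was 100 nL into about 20 µL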
Target sequence (Q9Y5K5 whole entry, looked up): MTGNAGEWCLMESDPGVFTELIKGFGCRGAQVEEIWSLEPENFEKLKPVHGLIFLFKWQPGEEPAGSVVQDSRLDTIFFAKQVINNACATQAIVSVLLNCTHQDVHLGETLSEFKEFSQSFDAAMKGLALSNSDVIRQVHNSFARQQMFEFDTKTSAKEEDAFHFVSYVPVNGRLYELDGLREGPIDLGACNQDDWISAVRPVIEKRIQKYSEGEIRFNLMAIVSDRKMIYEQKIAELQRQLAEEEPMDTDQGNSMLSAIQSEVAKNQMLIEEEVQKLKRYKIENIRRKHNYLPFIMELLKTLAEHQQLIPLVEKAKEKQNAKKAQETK
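System: Proteasome-associated human UCH37 deubiquitinase; Input: 0.15 nM proteasome in added enzyme buffer; Also added: Ub-AMC substrate from 1 µM stock; Incubation: 30 min compound-proteasome preincubation then 25 min substrate reaction, room temperature; Detection: fluorescence, ex 355 nm, em 460 nm; Read-out: % inhibition of Ub-AMC cleavage fluorescence; Benchmarks: no-proteasome and no-compound wells.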
Vif TR-FRET: inhibitors of Vif binding to APOBEC3G peptide, primary screen, biochemical, TR-FRET, GST-Vif 1-94, biotin-A3G peptide, dose response retest (AID 1117319). TR-FRET GST-Vif / biotin-A3G peptide binding; higher % means a stronger effect; test concentration not given here; strong numbers were not always called active. inhibition, %, or IC50 in µM where a hit was titrated. 260,000 tested, 0.57% active;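 active means above the screen mean plus three standard deviations and confirmed in dose response; inconclusive means results disagree or hit not tested in dose response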;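 further: Vif residues 1-94 fused to GST binding biotinylated APOBEC3G peptide 110-148; 0% = full assay without inhibitor and 100% = GST in place of GST-Vif; retest series ran down from 100 µM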
HNF4A DNA FP: change in binding of human HNF4 alpha to DNA. 360,000 tested, 0.3% active. P41235. AID 1224865. activity change, % at 10 µM. HNF4a-FITC DNA binding, fluorescence polarization, 1 h; in the data active means activity change above about 30%, passing the limit was not always enough;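 further: controls were the assay level and a saturating level of protein; the project sought stronger binding though the title names inhibitors; some compounds called inactive have numbers as strong as hits; positive values seem to mean higher polarization but the record does not say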
RanGTP-Imp inh: disruptors of Ran-importin-beta complex formation – biochemical, FRET, CFP-Ran, YFP-importin-beta, homogeneous, primary screen | cell-free CFP-Ran/YFP-importin-beta FRET ratio | inhibition, % (no concentration beside the values) | 300,000 tested, 1.1% active | AID 2216;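 active means most replicates above 15%; inconclusive means exactly half above 15%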;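 further: 0% = DMSO wells and 100% = Ran loaded with GDP instead of GTP; wells of about 40 µL received 100 nL stock; the first replicate is given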
FGF22 binding: FGF22 (human) thermal shift binding | Q9HCT0 | AID 651658 | recombinant FGF22 thermal shift, SYPRO orange fluorescence; percent of sucrose octasulfate shift, DMSO zero | 340,000 tested, 1.5% active | calls only at 9.99 µM;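 active means melting point raised past a set limit in the mean and every replicate; inconclusive means no clear call; three in four hits are not shown here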
Target sequence (Q9HCT0 whole entry, looked up): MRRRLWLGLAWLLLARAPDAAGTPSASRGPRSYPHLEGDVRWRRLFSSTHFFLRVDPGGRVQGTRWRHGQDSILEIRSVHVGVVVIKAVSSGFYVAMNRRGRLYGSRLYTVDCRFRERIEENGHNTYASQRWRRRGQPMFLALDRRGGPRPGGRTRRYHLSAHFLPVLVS
MLL AF4-AF9 inh: inhibitors of human MLL-AF4/AF9 interaction; AlphaScreen, biotin-AF4 peptide binding to FLAG-AF9; 350,000 tested, 0.47% active; inhibition, % at 10 µM;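 active means every replicate reaching a set inhibition limit, whatever the replicate mean, cut at about 25% in these data; inconclusive means mean inhibition reaches that limit but some replicates miss it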;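 further: 0% = plate neutral control median and 100% = total signal loss; the record names both 10 and 1 µM as test concentration; the first replicate is given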
Target sequence (P42568 whole entry, looked up): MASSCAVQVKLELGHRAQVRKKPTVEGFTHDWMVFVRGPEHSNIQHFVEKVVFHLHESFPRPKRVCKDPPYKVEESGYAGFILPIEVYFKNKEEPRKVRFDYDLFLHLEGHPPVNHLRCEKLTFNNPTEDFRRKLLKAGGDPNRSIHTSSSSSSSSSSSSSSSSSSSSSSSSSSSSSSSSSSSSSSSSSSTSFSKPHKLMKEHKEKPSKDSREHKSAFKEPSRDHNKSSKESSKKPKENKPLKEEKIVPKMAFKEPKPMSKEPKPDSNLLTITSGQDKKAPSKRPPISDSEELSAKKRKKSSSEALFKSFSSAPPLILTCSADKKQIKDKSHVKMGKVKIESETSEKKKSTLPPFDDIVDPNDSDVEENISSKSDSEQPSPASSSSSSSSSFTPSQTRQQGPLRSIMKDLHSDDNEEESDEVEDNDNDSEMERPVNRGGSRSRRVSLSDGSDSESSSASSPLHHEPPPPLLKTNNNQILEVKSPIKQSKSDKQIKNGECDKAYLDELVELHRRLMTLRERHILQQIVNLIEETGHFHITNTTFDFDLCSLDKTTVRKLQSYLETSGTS
* marks the source's active call; other numbers are inactive results; i = inactive; ? = inconclusive; / = no result given. Not all compounds are listed; rates above refer to the full screens.

SMILES	Ecoli growth	UCH37 inh	Vif TR-FRET	HNF4A DNA FP	RanGTP-Imp inh	FGF22 binding	MLL AF4-AF9 inh
O=C(Nc1cc(S(=O)(=O)N2CCOCC2)ccc1N1CCCC1)C1CC1	0.707	0.2	-4.8%	1.1	5.1	i	-1.8
COc1ccccc1CNC(=O)C1CC(c2ccccc2F)=NO1 (stereo not drawn)	0.679	4.1	/	3.3	8.8	i	-0.4
Cn1cc(C(=O)c2ccc(Cl)cc2Cl)cc1C=O	0.7	3.7	/	0.4	3.3	i	1.1
CCc1nnc(NC(=O)c2cc(Cl)ccn2)s1	0.657	3.3	/	-2.8	3.0	i	0.1
O=C(NCCc1ccccc1)C1CCN(C(=O)c2ccc(F)cc2)CC1	0.667	1.4	/	-0.1	-11.9	i	-2.3
C[C@H](NC(=O)c1ccco1)C(=O)Nc1ccc(S(=O)(=O)N2CCCC2)cc1	0.672	0.7	-4.9%	-1.3	7.9	/	/
CCOC(=O)[C@@H]1[C@H]2COc3ccccc3[C@H]2N2C(=O)N(c3ccc(Cl)cc3)C(=O)[C@]12C	/	1.2	/	9.1	-1.6	i	1.3
COCCn1c(Cc2ccccc2)nnc1SCC(=O)Nc1ccccc1	0.742	5.4	-0.8%	-4.7	3.1	i	-2.4
COc1ccc(C(=S)NCS(=O)(=O)c2ccc(C)cc2)cc1	0.713	2.6	-3.6%	-2.3	-2.1	/	/
Cc1ccc(S(=O)(=O)NNC(=S)Nc2cccc(F)c2)cc1	0.62	5.1	1.4%	3.7	2.5	i	4.6
COC(=O)C1=C(C)NC2=C(C(=O)CCC2)C1c1ccc(-c2ccsc2C(=O)OC)o1 (stereo not drawn)	0.653	-24.5	/	-1.8	0.5	i	0.8
C[C@@H](C(=O)NCCc1ccccc1)N1C(=O)N2CCc3c([nH]c4ccccc34)[C@@]2(C)C1=O	0.638	0.1	/	4.8	0.2	i	9.9
COc1cccc(C(C)(O)c2nc(-c3ccc(OC)c(OC)c3)cs2)c1 (stereo not drawn)	/	/	/	-2.0	/	i	-2.3
O=C(c1ccc([N+](=O)[O-])cc1)N1CCc2ccccc21	0.698	7.2	/	-0.6	0.8	i	47.0*
CCN1C(=O)[C@@H]2[C@H](C1=O)[C@@H]1C(=O)Nc3ccccc3C(=O)N1[C@@H]2c1cccc(C)c1	/	0.9	/	-0.2	/	i	-12.0
Cn1c(/C=C/c2ccccc2)nc2ccccc21	0.675	-287.6	12.5%	1.7	0.5	i	10.4
CCOC(=O)c1cnn(Cc2cccc(Cl)c2)c1C	0.701	1.5	-0.9%	6.9	0.7	/	-0.1
O=C(NC1CC1)c1sc2cc(Cl)ccc2c1Cl	0.651	3.8	4.7%	0.4	-2.0	i	0.6
COCCN(CC(=O)Nc1cccc(C)c1C)C(=O)c1cc2c(s1)CCC2	0.682	-1.0	11.3%	-2.9	/	i	1.8
COc1ccccc1NC(=O)c1ccc(NC(=O)C2COc3ccccc3O2)cc1 (stereo not drawn)	0.65	1.1	/	1.5	-0.1	i	0.1
Cn1cc(Br)c(C(=O)NC2C3CC4CC(C3)CC2C4)n1 (stereo not drawn)	0.731	1.5	14.9%	3.5	-0.7	/	/
Cc1c(C)c2ccc(O[C@@H]3O[C@H](CO)[C@H](O)[C@H](O)[C@H]3O)cc2oc1=O	0.668	-45.2	-4.0%	-2.1	-1.8	i	-3.8
Cc1ccc(S(=O)(=O)N2CCN(CC(=O)N/N=C/c3cc([N+](=O)[O-])ccc3Cl)CC2)cc1	/	/	6.2%	-2.3	-0.2	/	/
COc1ccccc1NC(=O)Cc1nnc(SCC(=O)Nc2ccc(F)cc2F)n1C	0.652	5.0	/	0.1	0.3	i	-0.9
COC(=O)C[C@H]1CC[C@@H](NC(=O)Nc2cccc(OC)c2)[C@@H](CO)O1	/	/	/	4.3	/	i	1.2
Cc1onc(-c2c(F)cccc2Cl)c1C(=O)Nc1ccc(Cl)c(S(=O)(=O)N(C)C)c1	0.716	5.1	6.0%	4.9	/	i	-1.2
CCOc1ccc(N/C(=N/c2nc(C)cc(C)n2)NC(C)=O)cc1	/	/	?	1.6	-1.2	i	/
CC(C)(C)c1ccc(C(=O)NCCC(=O)NC2=NCCS2)cc1	0.668	3.8	-11.7%	-2.2	/	i	29.5*
CC(C)(C)c1ccc(OC(=O)c2ccccc2)cc1	0.672	1.4	-1.2%	-3.8	-0.3	i	-6.8
CC(C)Oc1cccc(C(=O)NC(=S)Nc2ccccc2)c1	0.674	-0.2	/	1.5	2.6	/	/
COc1ccc2c(C)cc(SCC(=O)NC3CCCCC3)nc2c1	0.705	5.3	-15.4%	1.8	/	/	-3.4
O=C(c1nn(Cc2ccccc2)c(=O)c2ccccc12)N1CCc2ccccc2C1	0.696	-1.3	1.9%	-2.8	-0.1	/	/
Clc1ccc(-c2cc3ccccc3nc2N2CCCC2)cc1	0.788	-41.1	?	10.9	4.0	/	/
O=C(C[C@H]1C/C=C\C[C@@H](Cc2ccc(F)cc2)C(=O)O[C@@H](c2ccccc2)CNC1=O)N[C@@H](CO)Cc1ccccc1	/	5.0	/	-1.5	/	i	-0.5
O=c1c2ccccc2nc2n1CC/C2=C\N1CCN(c2ccc([N+](=O)[O-])cc2)CC1	0.67	4.8	/	-9.3	-0.6	i	8.3
CC(C)CSc1nnc(N)s1	0.668	-0.3	2.4%	-2.9	-0.2	/	/
CCOc1ncccc1C(=O)OCc1ccc(C(=O)OC)o1	0.751	-1.8	-1.7%	1.4	-2.8	/	/
CC(C(=O)Nc1cc([N+](=O)[O-])ccc1Cl)N1CCN(c2ccc(O)cc2)CC1 (stereo not drawn)	0.7	3.6	?	-5.1	?	/	/
CCOc1ccc(NS(=O)(=O)c2ccc3c(c2)N(C(C)=O)CCO3)cc1	0.687	3.2	5.4%	2.3	-0.9	i	0.5
CCc1ccc(OCC(=O)NCCOc2ccccc2)cc1	0.717	2.7	8.0%	3.0	-2.7	/	/
CCCC[n+]1ccn(-c2nc3ccccc3nc2[N-]S(=O)(=O)c2ccc(Br)cc2)c1	0.633	-76.3	-29.9%	-4.3	?	i	/
Cn1c(SCc2ccccc2)nc2ccsc2c1=O	0.674	1.8	-12.1%	-8.3	2.7	i	-3.1
CCOC(=O)c1sc(NC(=O)CSc2nc3cccnc3n2C)nc1C	0.663	3.7	/	-0.7	1.7	i	2.9
COc1ccc(S(=O)(=O)NC(C)c2ccccc2)cc1C(=O)N1CCCCC1 (stereo not drawn)	0.659	-2.2	2.6%	0.5	2.7	i	-3.0
CCSc1nc2ccccc2n1C(=O)/C=C\c1ccc(OC)c(OC)c1	0.706	-0.5	8.2%	3.8	3.8	/	/
Cc1cc(=O)oc2cc(NC(=O)c3cccc(S(=O)(=O)N(C)C)c3)ccc12	0.675	-50.6	/	-2.7	-1.3	i	-1.8
CCCNC(=O)c1cc(C2CCCCN2S(=O)(=O)Cc2cccc(C(F)(F)F)c2)on1 (stereo not drawn)	/	/	/	2.1	/	i	-2.3
COCc1c(C(=O)N/N=C(/C)c2cccs2)nnn1-c1nonc1N	/	/	/	5.1	-0.2	i	-0.9
Cc1cc(NS(=O)(=O)c2ccc(NC(=O)CSc3nnc(-c4ccco4)n3C)cc2)nc(C)n1	/	/	2.9%	1.0	0.0	i	-1.4
CC1CC(C)CN(C(=O)CN2CCN(Cc3ccc(Cl)cc3)C2=O)C1 (stereo not drawn)	0.658	-2.0	-2.2%	-1.9	2.5	/	/

Continued.
SMILES	Ecoli growth	UCH37 inh	Vif TR-FRET	HNF4A DNA FP	RanGTP-Imp inh	FGF22 binding	MLL AF4-AF9 inh
CCN(CC)S(=O)(=O)c1cc(C(=O)Nc2ccc(Cl)cn2)ccc1C	0.726	4.3	4.6%	-1.6	-0.3	/	/
CC(=O)c1sc(NC(=O)COc2ccccc2)nc1C	0.649	1.2	-8.0%	1.6	1.5	/	-2.6
COc1ccc(C(=O)c2c(N)sc3c2CCN(C)C3)cc1	0.652	4.0	-7.3%	-13.0	10.4	i	1.6
COCCc1ncc(CN2CCC(C(=O)Nc3cccc(-c4cscn4)c3)CC2)cn1	0.651	2.3	/	-1.6	2.8	i	4.0
CC1CN(C(=O)c2ccc(COc3ccc4ccccc4c3)o2)CC(C)O1 (stereo not drawn)	0.671	0.0	/	0.9	/	i	-1.0
COc1ccc(CNC(=O)C2(C)Cc3c(-c4ccc5c(c4)OCO5)ccnc3O2)cc1OC (stereo not drawn)	/	/	/	-1.6	/	i	2.3
CCOc1ccc(N2C(=O)CC(Sc3nccc(C)n3)C2=O)cc1 (stereo not drawn)	0.675	2.6	20.4%	-9.2	7.2	/	/
CCCCN1C[C@H](CSC)[C@@H](CC(=O)Nc2ccc(OC)cc2)C1=O	/	/	-11.2%	7.8	/	i	0.8
CCc1nnc(NC(=O)CSc2nnc(CSc3nc(C)cc(C)n3)n2C)s1	0.72	-0.5	-6.0%	-4.7	7.6	/	/
Cn1c(-c2ccc(F)cc2)cnc1NCc1ccc(F)cc1F	0.624	0.6	2.3%	0.6	-0.6	i	4.1
Cc1cccnc1C(NC(=O)C1CCN(CCOc2ccc(F)cc2)CC1)c1ccc(Cl)cc1 (stereo not drawn)	/	/	/	8.2	/	i	6.2
O=C(Cc1csc(NC(=O)Nc2cccc(Cl)c2)n1)NC1CCCC1	0.658	-0.6	-10.0%	1.7	-1.2	i	-19.2
COc1ccc(S(=O)(=O)N2CCCCCC2)cc1C(=O)N(C)CC(=O)Nc1ccccc1C(F)(F)F	0.683	-1.0	-8.5%	3.0	/	i	-1.7
Cc1ccccc1SCCNC(=O)c1ccccc1Br	0.686	3.4	-7.5%	1.6	1.2	i	-0.9
COc1cc(OC)c(Cl)cc1N	0.748	0.9	11.9%	5.2	?	/	/
FC(F)(F)c1cccc(OCC2CNC(=S)O2)c1 (stereo not drawn)	0.684	3.7	13.3%	0.7	2.6	i	0.5
CCn1c(SCC(=O)Nc2ccc3c(c2)oc2ccccc23)nnc1-c1ccc(N)cc1	0.695	2.5	6.6%	3.7	-3.4	/	/
N#CCC(=N)N1CCN(c2ccccc2Cl)CC1	0.74	3.2	1.7%	2.3	2.5	/	/
CCn1c(SCC(=O)NCC2CCCO2)nnc1-c1ccccc1OC (stereo not drawn)	0.723	0.8	/	0.9	/	i	-0.1
CCC1(C)Cc2ccccc2-c2nc3n(c(=O)c21)CC(C(=O)O)S3 (stereo not drawn)	0.755	-26.5	0.2%	-0.4	-0.4	/	/
Cc1ccc(C)c(OCc2cc(C(=O)N3CCN(c4ccccc4)CC3)no2)c1	0.732	4.8	/	-2.3	0.3	i	-0.2
CCCN1CCN(C(=O)c2cc(COc3ccc(F)cc3F)on2)CC1	0.686	4.8	/	-4.2	6.6	i	-3.8
O=C(CN1CCC(C(=O)c2ccc(F)cc2)CC1)Nc1ccc(F)cc1	0.677	3.8	-1.5%	4.4	-3.1	/	/
COc1ccccc1Nc1nc(N)nc(CN2CCC(Cc3ccccc3)CC2)n1	0.682	2.6	8.1%	4.3	0.0	/	/
CCSC1=NC2(CCCCC2)Nc2sc3c(c21)CCCC3	0.706	-0.1	7.3%	2.0	1.8	/	/

Printed as active in MLL AF4-AF9 inh (from the list above):
SMILES	Ecoli growth	UCH37 inh	Vif TR-FRET	HNF4A DNA FP	RanGTP-Imp inh	FGF22 binding	MLL AF4-AF9 inh
O=C(c1ccc([N+](=O)[O-])cc1)N1CCc2ccccc21	0.698	7.2	/	-0.6	0.8	i	47.0*
CC(C)(C)c1ccc(C(=O)NCCC(=O)NC2=NCCS2)cc1	0.668	3.8	-11.7%	-2.2	/	i	29.5*
